# Screens deposited in PubChem by several laboratories.
# RanGTP-Imp inh: inhibitors of RanGTP-importin-beta interaction, primary screen, biochemical, FRET, CFP-Ran, YFP-importin-beta, homogeneous. cell-free CFP-Ran/YFP-importin-beta FRET ratio. inhibition, % (no concentration beside the values). 1.1% of 300,000 active;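 active means most replicates above 15%; inconclusive means exactly half above 15%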;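 further: 0% = DMSO wells and 100% = Ran loaded with GDP instead of GTP; wells of about 40 µL received 100 nL stock; the first replicate is given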
# B2AR ag: agonists of human beta-2 adrenergic receptor inducing internalization; Am2.2-beta2AR cells, FAP receptor internalization, flow cytometry; reference of the scale not given here; P07550; 0.43% of 340,000 active; AID 504454; response, % (test concentration not listed);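 active means response above a set limit, near 3 SD of response in nonfluorescent compounds, cut at about 42% in these data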;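 further: stock transfer was 100 nL into about 11 µL; a reference agonist was the positive control; negative values mostly stem from fluorescent compounds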
# Target sequence (P07550 whole entry, looked up): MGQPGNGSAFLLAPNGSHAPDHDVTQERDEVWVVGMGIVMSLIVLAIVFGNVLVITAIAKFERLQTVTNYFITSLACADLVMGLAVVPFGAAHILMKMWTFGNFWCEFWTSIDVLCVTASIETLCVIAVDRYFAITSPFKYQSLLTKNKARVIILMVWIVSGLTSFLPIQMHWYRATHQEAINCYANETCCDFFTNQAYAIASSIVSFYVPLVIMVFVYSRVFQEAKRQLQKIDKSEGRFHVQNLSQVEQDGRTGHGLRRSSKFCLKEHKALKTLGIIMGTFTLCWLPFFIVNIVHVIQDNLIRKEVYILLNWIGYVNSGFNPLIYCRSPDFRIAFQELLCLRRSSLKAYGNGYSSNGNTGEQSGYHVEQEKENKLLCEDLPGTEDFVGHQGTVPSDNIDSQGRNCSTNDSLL
# Calb FLC: affects C. albicans growth with fluconazole; C. albicans CaCi-2 (fluconazole-resistant clinical isolate) + fluconazole, Alamar Blue growth, 48 h; growth inhibition, % (test concentration not listed); 0.57% of 300,000 active;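 active means most replicates above 75%; inconclusive means exactly half above 75%; inactive means most below 75%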;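 further: all wells also contain fluconazole at 8 µg/ml as a sub-toxic cotreatment; 0% = median of DMSO wells and 100% = median of geldanamycin control wells; wells of about 8 µL received 7.5 nL stock; the first replicate is given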
# LANA-H2B inh: blocks KSHV LANA binding to histone H2A/H2B; inhibition, % (concentration not given with the values); Q9QR71; AID 2629; cell-free LANA-H2A/H2B peptide, fluorescence polarization; 0.6% of 320,000 active; in the data active means inhibition mostly above about 10%, no sharp cut-off; inactive means mostly below about 6.7%;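 further: stock transfer was 7.5 nL into about 10 µL; 0% = median of vehicle wells and 100% = median of positive control wells; one replicate is shown; the record names a cut of 25% in any replicate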
# Vif TR-FRET: HIV-1 Vif–A3G interaction blockers – biochemical, TR-FRET, GST-Vif 1-94, biotin-A3G peptide, dose response retest, primary screen (AID 1117319); TR-FRET GST-Vif / biotin-A3G peptide binding; higher % means a stronger effect; test concentration not given here; strong numbers were not always called active; inhibition, %, or IC50 in µM where a hit was titrated; 0.57% of 260,000 active;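 active means above the screen mean plus three standard deviations and confirmed in dose response; inconclusive means results disagree or hit not tested in dose response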;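 further: Vif residues 1-94 fused to GST binding biotinylated APOBEC3G peptide 110-148; 0% = full assay without inhibitor and 100% = GST in place of GST-Vif; retest series ran down from 100 µM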
# HNF4A DNA FP: change in binding of human HNF4 alpha to DNA. P41235. HNF4a-FITC DNA binding, fluorescence polarization, 1 h. activity change, % at 10 µM. 0.3% of 360,000 active; in the data active means activity change above about 30%, passing the limit was not always enough;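 further: controls were the assay level and a saturating level of protein; the project sought stronger binding though the title names inhibitors; some compounds called inactive have numbers as strong as hits; positive values seem to mean higher polarization but the record does not say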
# Target sequence (P41235 whole entry, looked up): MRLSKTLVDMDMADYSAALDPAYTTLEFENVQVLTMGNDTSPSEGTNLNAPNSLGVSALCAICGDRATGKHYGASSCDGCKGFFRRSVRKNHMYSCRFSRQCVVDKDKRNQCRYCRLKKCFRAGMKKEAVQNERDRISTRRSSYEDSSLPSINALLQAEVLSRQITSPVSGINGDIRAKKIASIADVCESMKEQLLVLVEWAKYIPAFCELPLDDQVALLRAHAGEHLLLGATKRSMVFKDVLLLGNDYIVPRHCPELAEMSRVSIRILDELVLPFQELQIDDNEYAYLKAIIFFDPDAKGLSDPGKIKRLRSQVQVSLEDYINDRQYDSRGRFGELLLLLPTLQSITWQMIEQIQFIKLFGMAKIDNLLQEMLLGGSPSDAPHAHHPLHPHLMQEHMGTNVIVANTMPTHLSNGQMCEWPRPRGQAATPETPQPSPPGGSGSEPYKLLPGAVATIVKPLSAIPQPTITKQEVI
# ALR H2O2 inh: inhibitors of human sulfhydryl oxidase ALR; P55789; purified ALR, DTT oxidation, H2O2 HRP-luminol luminescence; inhibition, % (no concentration beside the values); 3.8% of 290,000 active;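 active means mean and each replicate at 75% or more; inconclusive means only one of the two met; inactive means neither met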;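 further: stock transfer was 7.5 nL into about 7.5 µL; 0% = neutral wells and 100% = wells with inactivated enzyme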
# Target sequence (P55789 whole entry, looked up): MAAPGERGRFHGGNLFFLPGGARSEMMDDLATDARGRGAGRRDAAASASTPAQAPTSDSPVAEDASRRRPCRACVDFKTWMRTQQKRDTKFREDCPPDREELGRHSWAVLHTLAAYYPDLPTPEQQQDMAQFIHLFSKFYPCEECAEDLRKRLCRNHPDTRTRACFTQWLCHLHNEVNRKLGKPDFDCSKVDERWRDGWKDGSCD
# Numbers without * were called inactive; ? = inconclusive; · = not tested or not shown; & = joins results of further samples.
SMILES,RanGTP-Imp inh,B2AR ag,Calb FLC,LANA-H2B inh,Vif TR-FRET,HNF4A DNA FP,ALR H2O2 inh
Cc1cc(C(=O)NNC(=O)c2cccc(C(F)(F)F)c2)no1,?,-1,-2,0.2,-7%,-0.8,3
Cc1ccc(CNC(=O)c2cn(C)c3ccc(S(=O)(=O)N4CCOCC4)cc3c2=O)cc1,0.2,-20,-15,-0.7,·,1.6,-2
COC(=O)c1cn(C(=O)c2cccc(C)c2)c2ccccc12,0.9,-1,-3,-4.4,3%,-2.0,-25
CCOc1ccc(S(=O)(=O)Nc2ccc(C(=O)N3CCCC3)cc2)cc1,1.2,15,-4,2.2,·,-1.2,2
O=C(Nc1ccccc1C(F)(F)F)N1CCCCCC1,2.4,4,-17,-3.4,4%,-0.1,-3
CC(C)C(=O)Nc1c(-c2ccccc2F)c(=O)c2ccccc2n1C,-1.4,1,0,2.7,0%,2.9,29
CC1CCc2c(sc(NC(=O)Cn3cnc([N+](=O)[O-])n3)c2C(N)=O)C1 (stereo not given),-0.8,-5,8,-4.4,·,-0.8,-34
CCOC(=O)C1CCCN(c2ncnc3c2cnn3-c2ccc(Cl)cc2)C1 (stereo not given),3.5,-2,2,0.7,36µM*,2.7,-1
C/C(=N\NC(=O)c1ccccn1)c1ccc(Cl)cc1,1.4,3,3,-2.6,-7%,1.6,-5
CCOc1ccc(N=C(NC#N)SCC)cc1,4.5,-8,-4,-5.8,0%,4.0,-7
COc1cc2c(C(=O)N3CCN(c4ccccc4C)CC3)c(C)oc2cc1Br,-3.4,12,8,3.2,1%,2.3,-14
COc1ccc(-c2cc(-c3ccccc3)n3ncnc3n2)cc1,-3.7,-4,29,1.5,-2%,-2.6,-2
CCCOc1ccc(Cl)cc1/C=C1/C(=O)ON=C1C,8.2,33,-2,-0.3,15%,-4.5,31
O=C(c1ccc(S(=O)(=O)N2CCOCC2)cc1)N(c1cccc(Cl)c1)C1C=CS(=O)(=O)C1 (stereo not given),-2.6,8,-9,1.2,3%,0.3,·
CC(C)c1nnc(NC(=O)CC(C)c2ccccc2)s1 (stereo not given),-5.9,-12,-8,-6.5,·,-0.2,-3
Cc1ccc(C(=O)NCC(=O)NC2CCC(C)CC2)s1 (stereo not given),·,-4,·,-1.4,-7%,4.5,·
CCSc1nnc(NC(=O)Cc2cccc(OC)c2)s1,6.0,3,-11,2.2,?,3.2,-3
CCS(=O)(=O)N1CCN(c2ccc([N+](=O)[O-])c(NCc3cccnc3)c2)CC1,2.9,0,-2,-0.1,·,20,0
CCOc1cc(/C=N/NC(=O)c2cccc([N+](=O)[O-])c2)ccc1OS(=O)(=O)c1ccccc1,1.5,16,-6,5.0,2%,-0.2,·
O=C(Cc1cccc(NC(=O)C2CCCN(C(=O)C3CCCC3)C2)c1)Nc1ccc(C(=O)N2CCCCC2)cc1 (stereo not given),·,-8,·,·,-4%,-2.5,·
CC1(C)c2[nH]c3ccccc3c2C[C@H]2C(=O)N(Cc3ccccc3)C(=O)N21,3.4,-2,6,-3.2,·,-6.7,2
CCCCCC(=C/c1ccccc1)/C=N/Nc1ccc(S(=O)(=O)N2CCOCC2)cc1[N+](=O)[O-],·,-3,·,·,-1%,-2.9,·
COc1ccc(N2C(=O)NC3CC2(C)Oc2ccccc23)cc1 (stereo not given),-1.6,-6,-1,-0.3,-1%,0.4,-2
CC(/C=N\NC(=O)c1cccnc1)c1ccccc1 (stereo not given),-1.9,1,12,1.5,·,3.6,9
O=C(CSc1nc2ccccc2s1)NNC(=S)Nc1ccc(Cl)cc1,1.7,15,12,·,·,-0.4,·
CC(=O)CSc1nnc(-c2ccc(S(=O)(=O)N3CCOCC3)cc2)n1C,3.3,4,?,5.3,·,0.5,36
COc1cc(CN2CCN(CCCc3ccccc3)C(CCO)C2)cc(OC)c1O (stereo not given),1.1,-6,3,1.4,·,-1.1,-8
CN(c1cccc(NC(=O)COc2ccc(Cl)cc2Cl)c1)S(C)(=O)=O,-2.7,4,0,-3.1,3%,1.3,-1
Cc1cccc(N(CC(=O)NCCSCc2ccccc2)S(C)(=O)=O)c1,0.7,3,35,1.5,·,-1.7,0
Cc1nnc(NC(=O)c2ccc(-c3ccc([N+](=O)[O-])cc3)o2)s1,2.1,-5,-3,0.1,5%,-0.7,30
Cc1cccc(NC(=O)CSc2cc(C)c(C#N)c3nc4ccccc4n23)c1,0.3,19,5,-3.3,-28%,-2.6,·
CNNC(=S)NC1CC2CC1C1C=CCC21 (stereo not given),1.0,-10,6,-2.4,27%,1.8,21
COC(=O)CSc1nn(-c2ccc(F)cc2)c(=S)s1,5.7,2,14,0.2,?,-1.8,-7
CC1(C)CC2CC(C)(CN2S(=O)(=O)c2ccc(C(=O)Nc3cc(S(=O)(=O)N4CCOCC4)ccc3Cl)cc2)C1 (stereo not given),-5.1,-7,-9,0.8,·,0.0,-5
CCn1c(=O)c(C(=O)CN2CCOCC2)c(N)n(Cc2ccccc2)c1=O,-2.2,12,2,2.3,2%,3.6,-12
Cc1c(Br)c([N+](=O)[O-])nn1CC(=O)N1CCc2ccccc21,-3.2,-5,-1,3.2,-6%,-1.8,2

# At a glance, some entries already given:
SMILES,RanGTP-Imp inh,B2AR ag,Calb FLC,LANA-H2B inh,Vif TR-FRET,HNF4A DNA FP,ALR H2O2 inh
CCCCCC(=C/c1ccccc1)/C=N/Nc1ccc(S(=O)(=O)N2CCOCC2)cc1[N+](=O)[O-],·,-3,·,·,-1%,-2.9,·
COc1ccc(N2C(=O)NC3CC2(C)Oc2ccccc23)cc1 (stereo not given),-1.6,-6,-1,-0.3,-1%,0.4,-2
CC(/C=N\NC(=O)c1cccnc1)c1ccccc1 (stereo not given),-1.9,1,12,1.5,·,3.6,9
O=C(CSc1nc2ccccc2s1)NNC(=S)Nc1ccc(Cl)cc1,1.7,15,12,·,·,-0.4,·
CC(=O)CSc1nnc(-c2ccc(S(=O)(=O)N3CCOCC3)cc2)n1C,3.3,4,?,5.3,·,0.5,36
COc1cc(CN2CCN(CCCc3ccccc3)C(CCO)C2)cc(OC)c1O (stereo not given),1.1,-6,3,1.4,·,-1.1,-8
CN(c1cccc(NC(=O)COc2ccc(Cl)cc2Cl)c1)S(C)(=O)=O,-2.7,4,0,-3.1,3%,1.3,-1
Cc1cccc(N(CC(=O)NCCSCc2ccccc2)S(C)(=O)=O)c1,0.7,3,35,1.5,·,-1.7,0
Cc1nnc(NC(=O)c2ccc(-c3ccc([N+](=O)[O-])cc3)o2)s1,2.1,-5,-3,0.1,5%,-0.7,30
Cc1cccc(NC(=O)CSc2cc(C)c(C#N)c3nc4ccccc4n23)c1,0.3,19,5,-3.3,-28%,-2.6,·
CNNC(=S)NC1CC2CC1C1C=CCC21 (stereo not given),1.0,-10,6,-2.4,27%,1.8,21
COC(=O)CSc1nn(-c2ccc(F)cc2)c(=S)s1,5.7,2,14,0.2,?,-1.8,-7
CC1(C)CC2CC(C)(CN2S(=O)(=O)c2ccc(C(=O)Nc3cc(S(=O)(=O)N4CCOCC4)ccc3Cl)cc2)C1 (stereo not given),-5.1,-7,-9,0.8,·,0.0,-5
CCn1c(=O)c(C(=O)CN2CCOCC2)c(N)n(Cc2ccccc2)c1=O,-2.2,12,2,2.3,2%,3.6,-12
Cc1c(Br)c([N+](=O)[O-])nn1CC(=O)N1CCc2ccccc21,-3.2,-5,-1,3.2,-6%,-1.8,2

# Following part:
SMILES,RanGTP-Imp inh,B2AR ag,Calb FLC,LANA-H2B inh,Vif TR-FRET,HNF4A DNA FP,ALR H2O2 inh
CCCc1c(O)nc(SCc2ccccc2)[nH]c1=O,1.7,2,-5,0.6,-3%,3.4,-21
CC(NC(=O)COC(=O)Cc1ccc(-c2ccccc2)cc1)c1ccccc1 (stereo not given),2.2,1,6,2.7,·,3.4,-20
CCCCC1=CC2=C(c3ccco3)C(=O)C(C)(OC(=O)c3ccc(OC)cc3)C(=O)C2=CN1c1ccc(OC)cc1 (stereo not given),-21,4,8,4.7,·,5.8,-16
Cc1nc(SCC(=O)Nc2cc(C)on2)c2c(C)c(C)sc2n1,-1.0,19,6,-1.7,0%,50*,-7
CC(C)CNC(=O)c1ccccc1SCC(=O)NC12CC3CC(CC(C3)C1)C2,0.5,12,-21,8.0,·,-2.9,-2
COCCNC(=O)/C(C#N)=C/c1c(N2CCN(c3cccc(Cl)c3)CC2)nc2c(C)cccn2c1=O,14,13,22,6.1,2%,2.5,4
CC[C@@]1(C(=O)OC)N[C@H](CN(C)C(=O)COc2ccccc2)[C@@H]2C(=O)N(C)C(=O)[C@@H]21,·,-8,·,·,4%,5.6,·
CCCn1nc(NC(=O)c2ccccn2)c2cc3cc(C)ccc3nc21,103*,-23,2,-1.2,64%,2.6,2
Cc1cccc2cc(CNCc3ccccc3)c(Cl)nc12,-2.4,-3,-45,-4.3,?,1.6,-2
Cc1cccc(OCC(=O)Nc2ccc(N3CCN(C(=O)c4ccco4)CC3)cc2)c1C,-4.5,-1,6,1.7,-3%,0.6,-2
COc1cccc2cc(C(=O)OCC(=O)N3CC(C)OC(C)C3)c(=O)oc12 (stereo not given),·,-1,·,-4.4,-7%,1.9,-1
COC(=O)c1c(Sc2ccccc2)c2ccccc2n1C,4.3,5,13,0.9,-11%,-2.2,3

# Some of these compounds in order of the B2AR ag value, lowest first.
molecule,B2AR ag
CC[C@@]1(C(=O)OC)N[C@H](CN(C)C(=O)COc2ccccc2)[C@@H]2C(=O)N(C)C(=O)[C@@H]21,-8
CCCCC1=CC2=C(c3ccco3)C(=O)C(C)(OC(=O)c3ccc(OC)cc3)C(=O)C2=CN1c1ccc(OC)cc1 (stereo not given),4
COC(=O)c1c(Sc2ccccc2)c2ccccc2n1C,5

# (continued)
SMILES,RanGTP-Imp inh,B2AR ag,Calb FLC,LANA-H2B inh,Vif TR-FRET,HNF4A DNA FP,ALR H2O2 inh
CCS(=O)(=O)c1ccc2oc(SCC(=O)c3ccco3)nc2c1,-4.1,0,4,0.6,10%,-6.5,63
NNC(=O)C(Cc1ccccc1)NC(=O)OCc1ccccc1 (stereo not given),-4.2,1,-9,3.0,·,3.1,39
Cc1nc2ccc(-c3nc4ccc(N)cc4[nH]3)cc2[nH]1,0.5,-11,2,-8.0,·,11,100*
Cc1ccccc1C(=O)OCCN(C)Cc1ccccc1,1.5,6,-29,-5.1,4%,-1.7,-4
Cc1ccc(SC2=C(Sc3ccc(C)cc3)C(=O)c3ccccc3C2=O)cc1,1.0,18,-5,-0.3,?,0.1,-39
COc1ccc(S(=O)(=O)n2ccc(-c3ccc4c(c3)CCC(C)(C)O4)n2)cc1,2.1,-3,0,-0.7,3%,-0.4,-7
Cc1c(NC(=O)Nc2ccc(C(C)C)cc2)c(=O)n(-c2ccccc2)n1C,2.1,1,-7,5.0,·,0.4,-6
Cc1ccc(C(=O)Nc2cccc(C(F)(F)F)c2)cc1NC(=O)c1ccno1,4.4,-8,-12,4.7,-10%,4.4&-1.0,0
COc1cccc(NC(=O)Nc2nnc(N3C(C)CCCC3C)s2)c1 (stereo not given),-5.1,13,0,3.0,69%,1.9,·
COCCN(CCOC)S(=O)(=O)c1ccc(C(=O)NCCCN2CCOCC2)cc1,0.8,1,-3,-0.8,-2%,-0.4,-2
CN1CCN(CCCNC(=O)Nc2cccc3ccccc23)CC1,1.6,-3,3,5.4,2%,-1.4,-9

# Individual results from the results shown:
# ALR H2O2 inh with COCCN(CCOC)S(=O)(=O)c1ccc(C(=O)NCCCN2CCOCC2)cc1 stands at -2
# LANA-H2B inh with Cc1c(NC(=O)Nc2ccc(C(C)C)cc2)c(=O)n(-c2ccccc2)n1C stands at 5.0
